Screening results from PubChem.
Arbovirus anti = arbovirus infection inhibition; arbovirus infection cell-based antiviral screen; inhibition, % at 10 µM; 200,000 tested, 0.37% active; AID 1251;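 active = inhibition from about 30%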;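 note: bluetongue infection of BSR cells; cell survival read as ATP light after 72 h; 0% = infected wells without compound and 100% = uninfected wells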
Mtb H37Rv = M. tuberculosis H37Rv growth inhibitors, H37Rv strain (AID 1626); 220,000 tested, 0.95% active; inhibition, % at 10 µM, or IC50 in µM where a hit was titrated; M. tuberculosis H37Rv growth inhibition; higher % means a stronger effect;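 active = confirmed in a dose series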;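 note: bacteria incubated seven days before Alamar blue readout; 0% = bacteria only wells and 100% = bacteria with antibiotic wells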
Mtb betalactam = beta-lactam sensitization of Mtb H37Rv. M. tuberculosis H37Rv growth with meropenem, percent inhibition; hits of this screen are not shown here. inhibition, % at 25 µM. 330,000 tested, 0.27% active;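 active = about 74% or more and at least 40 points above the plate without the antibiotic, then above 30% in a dose series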;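 note: growth measured after seven days incubation then overnight dye step; 0% = bacteria only wells and 100% = bacteria with antibiotic; twin plates without the antibiotic show which effects depend on it; some results filed as inactive read as strong as hits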
YopH inh = YopH (Yersinia) phosphatase inhibition | fluorescence Ex485/Em525 | inhibition, %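 (about 10 µM by stock and volumes)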 | 140,000 tested, 0.16% active;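 active = inhibition of 50% or more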;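 note: controls were vehicle for no effect and minimum signal wells for full effect; inactives centre near -20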
RecA intein inh = inhibitors of M. tuberculosis RecA intein splicing. 290,000 tested, 0.75% active. cell-free RecA intein splicing, fluorescence. AID 2221. P9WHJ3. inhibition, %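 (about 9 µM by stock and volumes)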; in the data active = inhibition above about 30%;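 note: 0% = vehicle wells and 100% = reference inhibitor control wells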
Target sequence (P9WHJ3 whole entry, looked up): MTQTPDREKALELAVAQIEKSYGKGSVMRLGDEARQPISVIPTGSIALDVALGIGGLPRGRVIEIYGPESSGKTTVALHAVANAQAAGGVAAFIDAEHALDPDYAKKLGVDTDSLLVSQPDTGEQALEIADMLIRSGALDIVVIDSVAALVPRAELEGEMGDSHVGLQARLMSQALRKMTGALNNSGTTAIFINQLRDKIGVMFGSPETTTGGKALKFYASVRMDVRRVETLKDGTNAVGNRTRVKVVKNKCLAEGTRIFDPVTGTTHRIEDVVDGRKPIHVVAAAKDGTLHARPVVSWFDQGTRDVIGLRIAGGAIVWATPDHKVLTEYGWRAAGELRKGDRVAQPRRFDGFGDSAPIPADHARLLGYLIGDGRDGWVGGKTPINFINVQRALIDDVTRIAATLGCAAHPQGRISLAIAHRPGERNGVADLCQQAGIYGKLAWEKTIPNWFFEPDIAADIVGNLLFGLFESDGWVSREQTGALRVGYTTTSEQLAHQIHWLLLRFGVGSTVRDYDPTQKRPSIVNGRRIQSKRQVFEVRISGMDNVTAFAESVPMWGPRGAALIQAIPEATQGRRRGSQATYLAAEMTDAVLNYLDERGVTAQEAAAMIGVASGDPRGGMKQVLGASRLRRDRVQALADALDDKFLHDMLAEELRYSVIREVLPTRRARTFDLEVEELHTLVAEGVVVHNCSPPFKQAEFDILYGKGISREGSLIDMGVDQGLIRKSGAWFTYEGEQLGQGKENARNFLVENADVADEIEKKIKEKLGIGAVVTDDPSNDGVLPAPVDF
* marks the source's active call; other numbers are inactive results; . = no result given. Not all compounds are listed, so the mix of outcomes need not match the whole.

SMILES | Arbovirus anti | Mtb H37Rv | Mtb betalactam | YopH inh | RecA intein inh
Cc1ccc(C=Nc2ccccc2C(N)=O)o1 | -18 | -3% | -2 | -26 | -3.0
CC(C)(Oc1ccc(Cl)cc1)C(=O)O/N=C(\N)c1ccncc1 | . | . | 2 | . | -0.7
COc1ccc(CNC(=O)c2c(C)nc3ccccn23)cc1 | 17 | 1.8µM* | 6 | -10 | 0.6
Cc1ccc2c(c1)C1(OCCCO1)C(=O)N2CC(=O)NN | . | . | 7 | . | 0.0
O=C(Nc1ccccc1Cl)N1CCN(C/C=C/c2ccccc2)CC1 | 7 | 8% | 0 | -2 | 0.5
O=[N+]([O-])c1ccccc1S(=O)(=O)N1CCN(C2CCCC2)CC1 | . | . | 1 | . | -4.4
C=CCc1cccc2cc(C(=O)NNC(=O)c3ccncc3)c(=O)oc12 | 6 | 41% | 79 | . | .
CCCCCN(C(=O)CCC(=O)OCC(=O)N1CCCCC1)c1c(N)n(CCCC)c(=O)[nH]c1=O | . | . | -24 | . | 0.6
COc1ccc(NC(=O)c2sc3ncn(CC(=O)N4CCN(c5ccccn5)CC4)c(=O)c3c2C)c(OC)c1 | . | . | -1 | . | -20
CCCN1C(=O)/C(=C/c2cc(C)n(C)c2C)SC1=Nc1ccc(OCC)cc1 | -12 | 5% | 1 | -36 | -0.3
COc1ccccc1-n1c(Cc2ccccc2)nc2ccccc2c1=O | -2 | -5% | -4 | . | 1.5
CC(C)Cc1ccc(C(C)C(=O)Nc2ccc(O)cc2)cc1 (stereo unspecified) | -31 | -5% | 3 | . | 6.0
C=CCn1c(SCC(=O)Nc2ccc3c(c2)CCC3)nnc1-c1cccs1 | -10 | 5% | 2 | -33 | 3.4
Cc1cccc(-n2c(-c3ccco3)n[nH]c2=S)c1 | 5 | -3% | 2 | -55 | -1.8
CC(C)Nc1nc(NC(C)C)nc(N(C)N)n1 | -5 | -3% | 63 | -15 | -5.3
Cc1ccc2c(c1)N(C(=O)CCC(=O)N1CCc3ccccc3C1)CCO2 | -4 | 3% | -9 | -45 | 5.8
COc1cccc(C(C(=O)NC2CCCCC2)N(CC2CCCO2)C(=O)CNC(=O)c2ccco2)c1 (stereo unspecified) | 0 | -3% | 2 | 2 | -2.1
COc1ccc(/C=N/NC(=O)C(N)=O)c(OC)c1OC | 5 | -1% | -3 | -18 | -4.5
Cc1c(C(N)=O)sc2ncn(CCOc3ccccc3)c(=O)c12 | 12 | 7% | -1 | . | 0.7
Nc1ccc(Oc2ccccc2F)nc1 | . | 33% | 90 | . | 3.5
Cc1cc(=O)oc2cc(OC(C)C(=O)NCCCn3ccnc3)ccc12 (stereo unspecified) | . | . | -2 | . | -0.8
C[C@H](NC(=O)C1CCN(C(=O)[C@H](Cc2ccccc2)NC(=O)OC(C)(C)C)CC1)C(=O)O | . | . | 2 | . | 2.0
Cc1cc2cc(CNC(=S)Nc3ccc(OC(F)(F)F)cc3)ccc2[nH]1 | -5 | . | -2 | -29 | 1.3
COc1ccc(CN(C)C(=O)c2cc(S(=O)(=O)N3CCOCC3)ccc2N2CCCC2)cc1 | . | . | -5 | . | 0.0
CCOC(=O)N1CCC(N2Cc3cccc(C(=O)Nc4cc(F)ccc4F)c3C2=O)CC1 | 3 | 3% | 4 | -53 | -3.5
Clc1ccccc1CN(Cc1ccccc1)C(c1cccs1)c1nnnn1C1CCCC1 (stereo unspecified) | -15 | 10% | 3 | -11 | .
O=C(N/C(=C\c1ccco1)C(=O)N1CCOCC1)c1ccccc1Cl | . | . | -2 | . | -1.7
COc1ccc(NC(=O)CSc2nc(C(C)C)nc3c2c(=O)n(C)c(=O)n3C)c(OC)c1 | . | . | 3 | . | -0.4
CC(=O)C1=C(O)C(=O)N(c2ccc(O)cc2)C1c1ccccc1Cl (stereo unspecified) | . | . | 8 | . | -1.3
Cc1ccc2c(=O)c(CN3CCCCCC3)c(C)[nH]c2c1C | . | . | -1 | . | 1.4
COc1ccc(CCCc2nnc(SCC(=O)Nc3nccs3)n2C)cc1C | 13 | -23% | -7 | -16 | 0.3
COc1ccc(CNC(=O)CCC(=O)N2C[C@H]3C[C@H](C2)c2cccc(=O)n2C3)cc1OC | . | . | -5 | . | 0.5
O=C(COC(=O)CCC(=O)c1cccs1)NCc1ccco1 | 9 | -1% | . | -7 | .
CCN(CC)c1cc(Oc2ccccc2)ncn1 | 4 | 2% | -4 | -4 | 3.4
O=c1[nH]c2ccc(NC(=S)Nc3ccccc3Cl)cc2[nH]1 | -8 | 3% | -9 | -26 | -1.6
CCOC(=O)c1ccc(NC(=O)Cn2cnc3cc(C)c(C)cc32)cc1 | . | -1% | -2 | . | 1.2
COc1ccc(CCNC(=O)c2c(C)nn(CC(C)C)c2Cl)cc1OC | . | . | 0 | . | -0.4
Cc1cc(C(=O)CCC(=O)Nc2ncccc2O)c(C)s1 | . | . | -3 | . | 3.7
O=C(CCc1ccccc1)NC(=S)NCc1ccco1 | 0 | 6% | 2 | . | 5.5
Cc1cnc(C(=O)Nc2ccccc2F)cn1 | -3 | -8% | -3 | -3 | -2.4
COc1ccc(N(CC(=O)NC(C)c2ccccc2)S(=O)(=O)c2c(C)noc2C)cc1 (stereo unspecified) | . | . | -4 | . | -3.0
CCOC(=O)N1CCN(CC(O)COCc2ccccc2)CC1 (stereo unspecified) | 6 | -4% | -2 | -4 | 0.2
Fc1ccc(-n2nnc(-c3ccccc3)n2)cc1 | . | . | -10 | . | -1.1
O=c1[nH]c(=O)c2cc([N+](=O)[O-])cc([N+](=O)[O-])c2[nH]1 | 7 | -1% | 2 | . | -64
COc1ccc(Cl)cc1NS(=O)(=O)c1cccc(C(=O)NC2CCC(O)CC2)c1 (stereo unspecified) | . | . | -10 | . | 0.0
C=CCOc1c(Cl)cc(CNc2ccc(N(C)C)cc2)cc1OC | -9 | 2% | 13 | -11 | .
CCNC(=O)NC(=O)C(C)Oc1ccc(Br)cc1Br (stereo unspecified) | 1 | 6% | -2 | . | 5.5
COC(=O)c1cc(Br)c(=O)n(CCN2CCCCC2)c1 | 1 | 0% | -5 | -24 | -1.9
CCOc1cc(C2C3=C(CC(C)(C)CC3=O)N(CCCOC)C3=C2C(=O)CC(C)(C)C3)ccc1OC | . | . | 8 | . | 0.8
CCN(CC)C(=O)CN(c1ccc(F)c(Cl)c1)S(C)(=O)=O | 0 | -3% | 0 | -26 | 1.9
CCn1nnnc1NC(=O)c1cc(Cl)c(OC)c(Cl)c1 | 7 | -11% | -8 | . | -2.0
CSc1ccccc1NC(=S)NCc1ccc(Cl)cc1 | . | . | 6 | . | 3.5
Cc1[nH]c(=O)nc2c1CCC2 | 10 | 0% | 3 | . | 0.1
NC(=O)CC(NC(=O)c1ccc(Br)cc1)c1ccc(N2CCCCCC2)c([N+](=O)[O-])c1 (stereo unspecified) | . | . | 54 | . | 3.0
COC(=O)C(NC(=O)C(NC(=O)c1ccccc1)C(C)C)C(C)C (stereo unspecified) | 3 | -6% | 7 | 10 | .
COc1ccc(-c2cnn3c(N)c(S(=O)(=O)C(C)(C)C)cnc23)cc1 | 3 | -6% | 9 | -58 | 5.1
COc1ccc(NC(=O)NCc2ccco2)c(OC)c1 | -5 | 6% | -14 | . | -2.4
O=C(Cn1cc(S(=O)(=O)Cc2ccc([N+](=O)[O-])cc2)c2ccccc21)N1CCOCC1 | . | . | 1 | . | 3.5
CCOc1cc(CNCCc2ccccc2)ccc1OCC(=O)NC(C)(C)C | -11 | 3% | -3 | -38 | -3.4
COc1ccccc1C(=O)Nc1nsc(-c2ccccc2)n1 | . | -5% | 2 | . | 3.1

14 entries already listed, ordered by SMILES length, lowest first.
SMILES | Arbovirus anti | Mtb H37Rv | Mtb betalactam | YopH inh | RecA intein inh
Cc1[nH]c(=O)nc2c1CCC2 | 10 | 0% | 3 | . | 0.1
CSc1ccccc1NC(=S)NCc1ccc(Cl)cc1 | . | . | 6 | . | 3.5
COc1ccc(NC(=O)NCc2ccco2)c(OC)c1 | -5 | 6% | -14 | . | -2.4
CCNC(=O)NC(=O)C(C)Oc1ccc(Br)cc1Br (stereo unspecified) | 1 | 6% | -2 | . | 5.5
COc1ccccc1C(=O)Nc1nsc(-c2ccccc2)n1 | . | -5% | 2 | . | 3.1
COC(=O)c1cc(Br)c(=O)n(CCN2CCCCC2)c1 | 1 | 0% | -5 | -24 | -1.9
C=CCOc1c(Cl)cc(CNc2ccc(N(C)C)cc2)cc1OC | -9 | 2% | 13 | -11 | .
CCN(CC)C(=O)CN(c1ccc(F)c(Cl)c1)S(C)(=O)=O | 0 | -3% | 0 | -26 | 1.9
COC(=O)C(NC(=O)C(NC(=O)c1ccccc1)C(C)C)C(C)C (stereo unspecified) | 3 | -6% | 7 | 10 | .
COc1ccc(-c2cnn3c(N)c(S(=O)(=O)C(C)(C)C)cnc23)cc1 | 3 | -6% | 9 | -58 | 5.1
COc1ccc(Cl)cc1NS(=O)(=O)c1cccc(C(=O)NC2CCC(O)CC2)c1 (stereo unspecified) | . | . | -10 | . | 0.0
O=c1[nH]c(=O)c2cc([N+](=O)[O-])cc([N+](=O)[O-])c2[nH]1 | 7 | -1% | 2 | . | -64
O=C(Cn1cc(S(=O)(=O)Cc2ccc([N+](=O)[O-])cc2)c2ccccc21)N1CCOCC1 | . | . | 1 | . | 3.5
CCOc1cc(C2C3=C(CC(C)(C)CC3=O)N(CCCOC)C3=C2C(=O)CC(C)(C)C3)ccc1OC | . | . | 8 | . | 0.8

Continued:
SMILES | Arbovirus anti | Mtb H37Rv | Mtb betalactam | YopH inh | RecA intein inh
CS(=O)(=O)N1CCN(C(=O)COc2ccc3ccccc3c2)CC1 | . | 7% | 0 | . | -2.4
O=c1c2cc(N3CCOCC3)ccc2[nH]c(=S)n1CCc1ccccc1 | 0 | 10% | 2 | . | -8.9
CNC1(c2nnnn2-c2c(C)cccc2C)CCOC(C)(C)C1 (stereo unspecified) | . | -2% | -11 | . | -2.6
Cc1cc(C)cc(N2C(=O)C3NN=C(C(=O)OCc4ccccc4)C3C2=O)c1 (stereo unspecified) | 1 | 10% | 3 | -24 | 0.9
CCN(CC)C(=O)CSc1nc2c(c(-c3cccnc3)c1C#N)CCCC2 | 3 | -6% | 2 | . | -2.7
CCOc1ccc(N(CC)S(=O)(=O)c2ccc3c(c2)oc(=O)n3C)cc1 | -4 | -7% | -2 | 11 | 0.1
CCC(NC(=O)c1cccc(Cn2nc(C)c([N+](=O)[O-])c2C)c1)c1ccc(C(C)C)cc1 (stereo unspecified) | -5 | 0% | -13 | -24 | 0.6
Cc1cc(F)ccc1S(=O)(=O)Nc1ccccc1C(=O)Nc1ccccc1-c1nc2ccccc2[nH]1 | -42 | 23% | 17 | -7 | -1.1
CC(C)(C)c1cc(C(=O)NCCCn2ccnc2)cc(C(C)(C)C)c1 | . | . | -4 | . | 0.1
CCOC(=O)CN1C(=O)N[C@@H](c2cccc(C(F)(F)F)c2)[C@H](C(C)=O)[C@H]1C | . | -15% | -14 | . | 1.5
O=C(NC1CCCc2ccccc21)C1CCN(S(=O)(=O)c2cccc3nonc23)CC1 (stereo unspecified) | 5 | -6% | 1 | -20 | -2.4
CC(=O)c1cccc(N(C(=O)c2ccco2)C(C(=O)NC2CCCC2)c2ccccc2F)c1 (stereo unspecified) | . | . | -5 | . | 2.8
Cc1oc2cc3oc(=O)c(CCC(=O)NCCCn4ccnc4)c(C)c3cc2c1C | . | . | -7 | . | -4.3
CCOc1ccc2[nH]c(=O)c(CN(CCN3CCOCC3)Cc3nnnn3C(C)(C)CC)cc2c1 | 16 | -6% | 4 | -12 | -0.9
Cc1cccc(OCC(=O)NNC(=O)Nc2cccc(Cl)c2)c1C | -13 | -1% | -9 | -29 | 2.0
COc1cccc(/C(C)=N/N=C(\C)c2cccc(OC)c2)c1 | . | . | -4 | . | 0.2
Cc1nc2oc3c(NCc4ccccn4)ncnc3c2c2c1COC(C)(C)C2 | -3 | -10% | 1 | -25 | -0.4
CCN(CC)S(=O)(=O)c1ccc(N2CCCC2)c(NC(=O)Cc2c(F)cccc2Cl)c1 | . | . | -1 | . | -1.3
Nc1ccc(C(=O)Nc2ccc3nc(-c4ccncc4)[nH]c3c2)cc1 | -3 | -5% | -6 | . | -1.2
O=C(/C=C/c1ccc(N2CCCCC2)c([N+](=O)[O-])c1)c1ccc(S(=O)(=O)N2CCCC2)cc1 | -9 | 12% | 8 | 17 | 0.5
COCC(C)n1c(SCc2nc(N)nc(Nc3ccccc3C)n2)nc2ccccc2c1=O (stereo unspecified) | -2 | 7% | 3 | -14 | 4.0
CCOC(=O)N1CCN(C(=O)CN(C)S(=O)(=O)c2ccc(OC)c(OC)c2)CC1 | 9 | -6% | -11 | 33 | -3.4
N#CC1CC(c2ccccc2)Nc2cc(Cl)ccc2N1 (stereo unspecified) | . | 5% | -6 | . | -0.7
Cc1ccc(S(=O)(=O)N2CCOCC2)c2nsnc12 | -1 | -5% | -9 | -25 | -1.8
